Assay outcomes as filed in PubChem BioAssay.
Env fusion inh: inhibitors of HIV Env-mediated cell fusion. hit rate 1.1% among 360,000. inhibition, % at 12.3 µM. AID 651610. HeLa-JRFL Env/CEM21 cell fusion, luciferase;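 active = mean replicate inhibition score of at least 50 and every replicate individually at or above 50; inconclusive = only one of the two criteria met; inactive = mean below 50 and not all replicates reaching 50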;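 also: 0% = plate neutral controls and 100% = maraviroc near 300 nM; one replicate is shown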
UUG fidelity: yeast start codon fidelity modulation | AID 602363 | S. cerevisiae UUG-firefly luciferase reporter, luminescence/redox ratio | activity score, % at 18.7 µM | hit rate 0.13% among 350,000;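 active = replicate mean at a twofold rise or more, about +100% in these data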;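 also: firefly luciferase made from a UUG start codon reports start codon fidelity; reporter light over untreated wells divided by growth signal over untreated wells; some hits fall short of that in this replicate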
Rce1 inhib: blocks yeast Ras-converting enzyme | calls only | Q03530 | hit rate 0.27% among 290,000 | yeast membranes, quenched prenylated peptide cleavage fluorescence | AID 2563;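 active = fall in fluorescence gain of 50% or more versus controls, with final raw signal at or below 3038400; inconclusive = same 50% fall but final raw signal above 3038400; inactive = fall in fluorescence gain under 50%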;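 also: plate controls were neutral control wells for no effect and wells lacking membranes for full effect; tested at 10 µM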
Target sequence (Q03530 whole entry, looked up): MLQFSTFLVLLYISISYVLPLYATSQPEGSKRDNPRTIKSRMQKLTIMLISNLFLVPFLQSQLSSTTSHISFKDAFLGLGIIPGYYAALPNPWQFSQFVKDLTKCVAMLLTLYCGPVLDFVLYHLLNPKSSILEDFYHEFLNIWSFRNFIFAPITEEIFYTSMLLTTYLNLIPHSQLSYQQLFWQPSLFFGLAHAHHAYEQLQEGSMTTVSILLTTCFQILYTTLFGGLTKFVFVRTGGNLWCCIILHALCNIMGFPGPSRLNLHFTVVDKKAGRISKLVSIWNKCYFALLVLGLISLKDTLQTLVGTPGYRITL
PABP polyA inh: blocks human PABP binding to poly(A) RNA | inhibition, % at 35 µM | fluorescence polarization | P11940 | hit rate 1% among 290,000;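 active = 50% or more with normal probe brightness, or confirmed in later tests; inconclusive = above 50% with abnormal brightness, or retests that disagree; inactive = below 50% or failed in later tests; about a fifth of its hits are not listed in these tables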;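 also: calls also rest on retests at 20 µM and on dose response follow-up; controls were probe without protein and protein plus probe with vehicle; some compounds called inactive have numbers as strong as hits; many hits fall short of the cut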
Target sequence (P11940 whole entry, looked up): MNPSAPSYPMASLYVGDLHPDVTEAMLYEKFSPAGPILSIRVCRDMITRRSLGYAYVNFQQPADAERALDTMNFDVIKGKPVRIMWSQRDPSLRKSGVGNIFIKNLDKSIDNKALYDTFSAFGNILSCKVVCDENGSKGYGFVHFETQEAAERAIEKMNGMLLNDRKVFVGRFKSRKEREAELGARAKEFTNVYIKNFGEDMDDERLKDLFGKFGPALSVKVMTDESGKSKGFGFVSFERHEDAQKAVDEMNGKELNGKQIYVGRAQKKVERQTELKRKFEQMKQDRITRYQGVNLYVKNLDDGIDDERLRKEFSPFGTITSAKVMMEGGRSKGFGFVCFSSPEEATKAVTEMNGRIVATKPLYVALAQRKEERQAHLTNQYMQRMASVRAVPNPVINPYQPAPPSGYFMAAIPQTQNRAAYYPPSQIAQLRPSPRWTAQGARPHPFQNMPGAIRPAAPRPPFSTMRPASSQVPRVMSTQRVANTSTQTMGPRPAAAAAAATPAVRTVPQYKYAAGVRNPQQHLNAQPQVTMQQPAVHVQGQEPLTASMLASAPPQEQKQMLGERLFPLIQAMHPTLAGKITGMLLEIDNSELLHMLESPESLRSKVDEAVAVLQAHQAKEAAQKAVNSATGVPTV
eIF4H FP inh: inhibitors of RNA binding by human eIF4H; inhibition, % at 35 µM; AID 2012; hit rate 0.94% among 290,000; eIF4H fluorescence polarization binding assay;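 active = 50% or more with normal probe brightness, or confirmed in later tests; inconclusive = above 50% with abnormal brightness, or retests that disagree; inactive = below 50% or failed in later tests; about a fifth of its hits are not listed in these tables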;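 also: calls also rest on retests at 20 µM and on dose response follow-up; 0% = protein and probe with vehicle and 100% = probe without protein; strong numbers were not always called active; many hits fall short of the cut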
MT1-MMP act inh: inhibitors of human MT1-MMP activation | P50281 | HT1080 RFP-PRO-GFP cells, GFP/RFP ratio fluorescence, overnight; percent of plate control window, DMSO zero | GFP/RFP ratio change, % at 20 µM | hit rate 0.061% among 360,000;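 active = GFP/RFP ratio change of at least 30% with cell ATP level not reduced by more than half and red fluorescence within 50% of control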; also: strong numbers were not always called active
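Assay system – RFP-PRO-GFP reporter HT1080 cells · Compound dosing – single dose of 20 µM compound, 1% DMSO final · Incubation – overnight compound exposure at 37 °C · Measure – GFP/RFP fluorescence ratio · Benchmarks – DMSO wells and RFP-L50D-GFP cells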
CSC inhib: cancer stem cell inhibition. cancer stem cell-like cells viability, luminescence. inhibition, % at 7.5 µM. hit rate 1.1% among 300,000. AID 2717;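 active = mean at 75% or more and at least half the replicates too; inconclusive = mean and replicates disagree; tested in HMLE shEcad cells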;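 also: 0% = median of negative and 100% = median of positive control wells; the first replicate is given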
eIF4H FP inh retest: also measured in eIF4H FP inh; calls as there; inhibition, %; compound at 20 µM; confirmation average;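 mean of two retest wells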
PABP polyA inh retest: recorded beside PABP polyA inh, whose call it bears; inhibition, %; compound at 20 µM; confirmation repeats;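 mean of two retest wells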
MT1-MMP act inh RFP: second read-out of MT1-MMP act inh, no call of its own (marks repeat the call); RFP signal change, %; measured here: RFP expression control read;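 0 = vehicle wells; hits needed this value within 50% of zero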
Starred values were filed as active, the others as inactive; i = inactive; ? = inconclusive; / = no result given.

SMILES	Env fusion inh	UUG fidelity	Rce1 inhib	PABP polyA inh	eIF4H FP inh	MT1-MMP act inh	MT1-MMP act inh RFP	CSC inhib	others
COC(=O)c1cc(OC)c(OC)cc1NC(=O)CCNC(=O)c1ccco1	0	-11	i	12	-2	0	3	-3
O=C(COC(=O)Cn1cnc2ccccc21)Nc1ccc2c(c1)OCCO2	/	-8	i	0	4	2	2	-3
CN(CC(=O)Nc1ccc(F)cc1)C(=O)c1ccc2ccccc2n1	-8	-19	/	/	/	0	3	/
OCCN1CCN(c2ncnc3c2ncn3[C@H]2CN(Cc3cccs3)C[C@@H](CO)O2)CC1	24	1	/	/	/	-2	-2	/
Cc1cc(-n2c(C)cc(C(=O)COc3ccc([N+](=O)[O-])cc3)c2C)no1	17	/	i	12	-6	0	-10	17
Cc1cc(C)c(S(=O)(=O)c2ccccc2)c(Cl)n1	/	9	i	28	-4	5	7	-3
Nc1nn(-c2ccccc2)c(N)c1N=Nc1cccc(F)c1	-487	-21	i	6	-20	1	-12	51
COc1ccccc1C(=O)NCC(=O)OCC(=O)Nc1ccc2[nH]c(=O)[nH]c2c1	-25	/	i	/	/	3	0	-8
Cc1ccccc1NC(=S)N1CCN(Cc2ccc3c(c2)OCO3)CC1	12	-14	i	2	2	-2	2	-16
CCCCn1c(N)c(N(CCC(C)C)C(=O)COC(=O)c2ccc([N+](=O)[O-])s2)c(=O)[nH]c1=O	9	5	/	/	/	2	-23	7
C/C(=N\NC(=O)c1cccc(N/N=C(\C)c2ccc([N+](=O)[O-])cc2)c1)c1ccc([N+](=O)[O-])cc1	6	/	i	-14	-9	7	4	7
Cc1ccc(S(=O)(=O)N(C)CC(=O)N2CCOCC2)cc1	-58	-42	i	-4	10	-2	0	-3
Nc1nnc(CC(=O)N/N=C/c2cccc([N+](=O)[O-])c2)s1	/	-16	i	6	4	2	2	-8
Cc1cc(C)nc(NCC(O)CNc2ccccc2C)n1 (stereo unspecified)	0	/	i	7	4	-2	1	-5
CCN(CCn1cccn1)Cc1nc(-c2ccc(OC)cc2)no1	10	-14	i	5	-2	-3	-5	-9
COc1ccc(-c2ccc(CCC(=O)O)n2-c2ccccc2OC)cc1	-67	-7	i	-3	-3	4	-8	59
CCOC(=O)CSC1=Nc2ccccc2C2=NC(CC(=O)NCc3ccc(OC)cc3)C(=O)N12 (stereo unspecified)	-38	/	i	3	4	4	6	-28
CCC(C(=O)NCc1cccnc1)n1nc(C)c2sc3ccccc3c2c1=O (stereo unspecified)	13	-3	i	0	-21	0	1	-8
CC(C)(C)SCCNC(=O)CN1C(=O)c2cccc3cccc1c23	-8	-2	i	-3	-14	4	2	-16
CCOC(=O)C(NC(=O)OC(C)C)(Nc1nccs1)C(F)(F)F (stereo unspecified)	/	8	/	-2	-8	0	-1	-13
O=C(C1CCCN(S(=O)(=O)c2cc(Cl)ccc2Cl)C1)N1CCCC1 (stereo unspecified)	-11	-9	i	9	-4	-1	-11	-11
Cc1cccc(C(=O)NCCc2ccc(S(N)(=O)=O)cc2)c1[N+](=O)[O-]	/	/	i	-2	89	3	6	4	eIF4H FP inh retest=10;PABP polyA inh retest=3
Cc1cccc(NC(=O)c2sc(-c3ccccc3)nc2-c2ccc([N+](=O)[O-])cc2)c1	5	/	i	10	13	-1	-2	12
Cc1ccc(S(=O)(=O)Nc2ccc(N=Nc3ccc(O)cc3)cc2)cc1	-14	/	?	8	2	3	2	36
CC12CC(O)C3c4ccc(O)cc4CCC3C1CC/C2=N\O (stereo unspecified)	2	-15	i	2	-17	8	4	-2
(continued)
SMILES	Env fusion inh	UUG fidelity	Rce1 inhib	PABP polyA inh	eIF4H FP inh	MT1-MMP act inh	MT1-MMP act inh RFP	CSC inhib	others
O=C(C1=COCCO1)N(Cc1nnc(-c2ccccc2Cl)o1)C1CC1	/	-8	/	/	/	-4	-1	-17
CC(=O)N1CCN(Cc2nc3cc(NC(=O)Nc4ccccc4)ccc3n2C)CC1	6	-23	i	-4	-6	-5	-3	/
O=C(CSc1ncn[nH]1)NCc1ccccc1	/	-3	i	-5	2	-6	0	-3
C=CCSc1nnc2c(n1)OC(c1cccnc1)N(C(C)=O)c1ccccc1-2 (stereo unspecified)	-13	-21	i	9	14	2	3	-16
O=C(O)c1ccccc1-c1csc(-c2ccccc2)n1	-12	/	i	-4	0	-6	5	-2
COCCCNC(=O)c1ccc(Cn2c(=O)c3ccccc3n(Cc3ccccc3C)c2=O)cc1	18	-8	i	4	-7	1	2	7
O=C(CCCN1C(=O)c2ccccc2C1=O)Nc1ccccc1	-13	/	i	12	-7	-1	1	1
COc1ccc(-c2oc3ncnc(N)c3c2-c2ccccc2)cc1	-89	-4	i	4	0	-4	0	1
COCc1ccc(CN2CCC(n3nccc3NC(=O)CCOc3ccccc3)CC2)o1	-10	5	i	-5	-2	2	3	-11
CN(C)/C=N/c1ncc(-c2ncc(C(F)(F)F)cc2Cl)cn1	-31	-13	i	-3	1	2	4	-1
Cc1ccccc1NC(=O)CSc1nnc(Cc2ccccc2)o1	-18	-28	i	8	5	3	3	1
C/C(CCc1oc2ccc(Cl)cc2c1-c1ccc(C)o1)=N\O	3	-28	i	5	1	-5	1	4
O=C(CCc1ccccc1)NC(c1cccs1)c1cc(Cl)c2cccnc2c1O (stereo unspecified)	-163	/	i	1	12	-33	-13	/
COc1ccccc1Nc1nnc(Cc2ccccc2)c(=O)[nH]1	-19	/	i	-6	1	-4	-4	0
CC(=O)Nc1ccc(S(=O)(=O)NCC(=O)OCC(=O)NC(=O)c2cccn2C)cc1	-8	-9	i	0	7	0	5	-7
CS(=O)c1ccccc1COC(=O)Nc1cccc(Cl)c1 (stereo unspecified)	/	-8	i	-6	-8	3	-6	37
O=c1oc2cc(O[C@@H]3OC[C@@H](O)[C@H](O)[C@H]3O)ccc2c2ccccc12	16	-4	i	4	0	3	4	/
COc1ccccc1NC(=O)C(C)N(C)CCOc1ccccc1 (stereo unspecified)	1	17	i	12	2	2	3	4
O=C(Nc1ccccc1)N1CCCC1c1cccs1 (stereo unspecified)	3	-10	i	-4	-4	-1	-4	5
CC(=O)c1ccc(Oc2ccc(C(=O)c3ccc(C)c(C)c3)cc2[N+](=O)[O-])cc1	42	-4	i	3	2	-5	-12	27
O=C(CSC1=NCCS1)N1CCCCCC1	/	-7	i	6	-3	3	5	/
CCOC(=O)C1(CCOc2ccccc2)CCN(Cc2cc(OC)cc(OC)c2)CC1	11	2	i	11	4	-1	-17	5
COc1ccc(/C=N/Nc2nc(-c3cccc(S(=O)(=O)N4CCCC4)c3)cs2)cc1OC	3	/	i	-3	-5	-2	-14	4
Cc1cc(NCc2ccccc2)nc(-c2ccccc2O)n1	38	-2	i	2	-7	0	-2	/
Cc1ccc(CN2CCN(/N=C/C=C/c3ccccc3[N+](=O)[O-])CC2)cc1	18	-7	i	7	-4	3	0	6

Looked up one by one from the entries so far (4):
SMILES	Env fusion inh	UUG fidelity	Rce1 inhib	PABP polyA inh	eIF4H FP inh	MT1-MMP act inh	MT1-MMP act inh RFP	CSC inhib	others
COc1ccccc1NC(=O)C(C)N(C)CCOc1ccccc1 (stereo unspecified)	1	17	i	12	2	2	3	4
C=CCSc1nnc2c(n1)OC(c1cccnc1)N(C(C)=O)c1ccccc1-2 (stereo unspecified)	-13	-21	i	9	14	2	3	-16
C/C(CCc1oc2ccc(Cl)cc2c1-c1ccc(C)o1)=N\O	3	-28	i	5	1	-5	1	4
O=C(CSC1=NCCS1)N1CCCCCC1	/	-7	i	6	-3	3	5	/

Later entries:
SMILES	Env fusion inh	UUG fidelity	Rce1 inhib	PABP polyA inh	eIF4H FP inh	MT1-MMP act inh	MT1-MMP act inh RFP	CSC inhib	others
COC(=O)C(=Nc1ccccc1)/C(C(=O)C(=O)N(C)c1ccccc1)=C(\O)c1ccc(Cl)cc1	-13	/	i	-2	3	-1	4	-11
COc1ccc(NC(=O)CSCC(=O)Nc2nnc(C3CC3)s2)cc1	-13	-26	i	/	/	-3	2	-10
CN1CC2(Cc3c1ccc1ccccc31)C(=O)OC(C)(C)OC2=O	-75	-20	i	21	16	-5	-3	-18
CCCN(CC(=O)Nc1ccccc1C)C(=O)c1ccc2ccccc2n1	15	/	i	/	/	23	-2	0
Cc1ccc(N=Nc2c(O)n(CN3CCOCC3)c3ccccc23)cc1	/	-21	i	?	?	-29	4	-10
COc1cc(NC(=O)COc2ccccc2C)ccc1NC(=O)c1ccco1	-42	-4	i	-5	-6	-1	-2	-1
O=C(NCc1ccccc1)c1ccc(Cl)c(NC2=NC3CS(=O)(=O)CC3S2)c1 (stereo unspecified)	-53	-15	i	-1	-14	-2	-2	-1
Cn1c(N)c(C(=O)COC(=O)CCCc2c[nH]c3ccccc23)c(=O)n(C)c1=O	/	-3	i	3	-14	4	6	3
Cc1ccccc1Nc1scc(-c2ccc(Br)cc2)[n+]1-c1ccccc1C	14	-21	i	-6	-6	-8	-10	6
COCC(C)NC(=O)/C(=C/c1ccccc1)c1ccccc1 (stereo unspecified)	26	/	i	-8	-1	0	3	2
CCOc1ccc(Br)cc1CNc1ccc2c(c1)OCCO2	-8	-39	i	-8	0	1	-3	26
CCOc1nc(C)ccc1-c1noc(-c2ccco2)n1	/	9	i	15	14	0	-1	1
O=C(Cc1n[nH]c(=O)c2ccccc12)OCC(=O)c1ccc(OC(F)F)cc1OC(F)F	11	-17	i	/	/	-2	1	-10
COc1ccc(CC(NC(C)=O)C(=O)NC2CCN(c3c(Cc4ccccc4)c(C)nc4ncnn34)CC2)c(OC)c1 (stereo unspecified)	-8	/	i	0	-12	0	1	-10
Cc1onc(-c2ccccc2Cl)c1C(=O)NC(=S)Nc1ccccc1C(N)=O	/	-21	i	8	-9	-5	-3	-1
COc1ccc(N=Cc2c(O)[nH]c3ccccc23)cc1	-468	-15	i	9	1	0	-5	19
COC(=O)C1=CN(Cc2ccc(OC)c(OC)c2)C=C(C(=O)OC)C1c1ccc(F)cc1	0	-10	/	8	3	-6	-2	-9
COc1ccc(NC(=O)C2Cc3c(-c4ccc(NC(C)=O)cc4)ccnc3O2)cc1 (stereo unspecified)	-3	5	/	/	/	0	2	/
Nc1ncnc2c1ncn2CCNCCc1ccccc1	/	-3	i	-10	1	-1	0	-3
Cc1ccc(S(=O)(=O)Cn2nnnc2C(CC(C)C)N2CCN(c3ccccc3)CC2)cc1 (stereo unspecified)	-45	-20	i	2	-5	-11	-12	19
Nc1ncnc2c1ncn2[C@@H]1O[C@H](COP(=O)(O)O)[C@@H](O)[C@H]1O	9	-16	i	7	0	3	4	4
COc1cc2ccccc2cc1C(=O)OCc1nc2ccsc2c(=O)[nH]1	/	-13	/	/	/	-6	6	-16
CC(C)c1ccc(NC(=O)CSc2nc(=O)n(CCCN3CCOCC3)c3c2CCCC3)cc1	10	21	i	/	/	0	-1	8
Cc1ccc(NC(=O)COC(=O)c2cccc3c(=O)c(C)c(-c4ccccc4)oc23)cc1	5	-17	i	11	7	3	1	-9
CCOC(=O)COc1ccc([N+](=O)[O-])cc1	3	/	i	-3	1	0	6	-3
CCCOc1ccc(C(=O)NCCN2CCOCC2)cc1	-35	-13	i	1	-14	3	2	-17
COc1ccccc1C(=O)Nc1ccc2c3c(cccc13)CC2	-54	-12	i	4	-8	-8	-2	-6
